Screening results (PubChem BioAssay)
PrP 5UTR inh = inhibition of PrP 5' UTR reporter expression | cell-based PrP 5' UTR mRNA reporter, plate reader | inhibition, % (concentration not given with the values) | 0.35% of 340,000 active | AID 488862;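 active = every replicate at 50% or more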;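 note: 0 = median of the neutral control wells; tested in H4 reporter cells; numbers are from one replicate; inactives centre near -14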
Bead autofluor = counter-screen for toxin protease inhibitors: compound fluorescence | compound autofluorescence counterscreen, microsphere flow cytometry; hits give high values | fluorescence intensity (test concentration not listed) | 3.1% of 360,000 active | AID 624483;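 active = at least 3 SD above the mean of all compounds, about 16000 in these data; inconclusive = too few beads counted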;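 note: 100 nL of 1 mM stock went into each well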
Mtb hypoxia rep = inhibitors of hypoxia-regulated fluorescent reporter in Mycobacterium tuberculosis. fluorescence inhibition, % (concentration not given with the values). M. tuberculosis hypoxia-regulated fluorescent reporter, fluorescence. AID 1159583. 0.1% of 300,000 active;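 active = 35 to 45% if threefold the growth effect, above 45% if 1.5-fold the growth effect; inactive = the rest, general growth blockers included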;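 note: wells of about 50 µL received 100 nL stock; 0% = vehicle wells and 100% = reference inhibitor wells; whole bacteria with a GFP reporter of the hypoxia response; strong numbers were not always called active; many hits fall short of the cut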
RN4220 kill = S. aureus RN4220 growth inhibition; OD600, 16 h; inhibition, % (concentration not given with the values); AID 1259311; 0.33% of 330,000 active;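 active = z-score of -3 or lower and OD600 up to 0.18 on both plates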;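 note: plate controls were untreated cells for no effect and reference antibiotic for full effect; stock transfer was 100 nL into about 80 µL; one replicate is shown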
BJeLR viability = kills HRASV12-expressing BJeLR cells; AID 1554; inhibition, % (test concentration not listed); 0.17% of 300,000 active; BJeLR (HRASV12) viability, CellTiter-Glo ATP luminescence, 48 h; reference of the scale not given here;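 active = replicate mean above 50%; inconclusive = above 50% but judged a plate artefact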;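 note: 50 nL library stock added to about 25 µL; numbers are from one replicate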
Sa ugtP lethal = compounds lethal to S. aureus RN4220 ugtP deletion mutant. OD600 growth, 16 h; some inactives read as strong as hits. growth inhibition, % (concentration not given with the values). 0.54% of 330,000 active. AID 1259309;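 active = z-score under -3 and OD600 up to 0.15 on both plates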;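 note: plate controls were untreated wells for no effect and antibiotic for full effect; wells of about 80 µL received 100 nL stock; the first replicate is given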
Mtb hypoxia rep growth = recorded beside Mtb hypoxia rep, whose call it bears; growth inhibition, %; measured here: M. tuberculosis growth (absorbance);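 0% = vehicle and 100% = reference antibiotic; read after six days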
* = called active by the depositor; ? = inconclusive; · = no result given; & = joins results of further samples.

SMILES	PrP 5UTR inh	Bead autofluor	Mtb hypoxia rep	Mtb hypoxia rep growth	RN4220 kill	BJeLR viability	Sa ugtP lethal
COc1ccc(CCC(=O)OCC(=O)Nc2ccc(OC)c(OC)c2)cc1OC	-1	2853	-9	-9	6.5	-11	1
O=C(c1ccco1)N1CCN(C(=O)c2cc(-c3ccccc3F)no2)CC1	-45	5336	2	2	1.5	6	5
CC(C)(C)C(O)CN1CCCC1 (stereo not drawn)	-13	3278	3	7	3.9	-2	1
CC(=O)Nc1sc(NN=Cc2ccccc2)nc1-c1cccs1	·	·	13	12	1.3	·	-1
CCCC(=O)Nc1nc2c(c(=O)[nH]1)CCCC2	-11	4160	·	·	1.3	-2	3
CC(=O)c1ccc(OCC(=O)N2CCN(S(=O)(=O)c3ccc(Br)s3)CC2)cc1	-12	5731	2	3	1.5	·	-1
CN(C(=O)c1cc(-n2cnnc2)ccc1Cl)c1ccccc1	-14	2016	7	7	1.8	11	4
O=C(NCc1ccccn1)C1CC1C(NP(=O)(c1ccccc1)c1ccccc1)c1ccccc1 (stereo not drawn)	·	·	-2&1	-2&2	2.6&4.2	·	3&6
CC1CN(S(=O)(=O)c2ccc(-c3nc4ccccc4s3)cc2)CC(C)O1 (stereo not drawn)	-17	6011	16	1	1.6	5	9
CC(Sc1nnc(C2CC2)n1Cc1ccccc1)C(=O)N1CCNC1=O (stereo not drawn)	-4	7703	1	4	0.9	·	-1
O=C(/C=C/c1ccc2ccccc2c1)c1ccoc1	-43	?	8	7	-3.5	-5	-1
Cc1ccc(SCc2cc(=O)[nH]c(N3CCN(C)CC3)n2)cc1	-23	3128	10	7	0.6	-1	3
Cc1cc(NC(=O)CSc2nc3c(c(=O)n2Cc2ccccc2)SC(C)C3)no1 (stereo not drawn)	-12	4994	0	4	1.6	-14	7
CC1(c2ccccc2)NC(=O)N(CC(=O)NCc2cccc(Cl)c2)C1=O (stereo not drawn)	-17	3737	-5	0	0.8	-3	0
CC(NC(=O)/C(C#N)=C1\N=C(NC(=O)c2cccs2)c2ccccc21)c1ccccc1 (stereo not drawn)	-12	6060	·	·	2.7	0	-4
O=C(O)/C=C/C(=O)Nc1cc(F)ccc1F	-22	4451	1	-3	2.9	-10	9
COc1ccc(NC(=O)CCN2CCN(S(=O)(=O)c3ccc(Br)cc3)CC2)cc1	-1	5314	2	5	0.8	-2	6
Cc1c(C(=O)OCC(=O)NC(=O)NC2CCCCC2)cccc1[N+](=O)[O-]	-30	4033	8	-4	-0.8	·	12
COc1cccc(NC(=O)Cc2nnc(SCC(=O)NC(C)c3ccccc3)n2C)c1 (stereo not drawn)	-11	21780*	8	21	3.4	4	4
CC(CCC(C)C)=NNC(=O)COc1ccccc1-c1ccccc1	·	·	-5	7	5.9	·	10
Cc1ccc(CC(=O)NCc2cccnc2)cc1	·	·	0	4	2.4	0	8
O=C(Nc1ncc2c(n1)-c1ccccc1OC2)c1ccccc1Cl	-18	4574	5	0	3.7	0	-10
CCOc1ccc(S(=O)(=O)N2CCOCC2)cc1NC(=O)CSCc1c(C)noc1C	2	6040	-3	2	0.0	-1	3
O=C(NCCc1c[nH]c2ccccc12)c1ccc([N+](=O)[O-])cc1	-49	2481	-11	5	0.9	-15	10
Cn1c(=O)c2cc3c(nc2n(C)c1=O)CC(c1ccccc1)CC3=O (stereo not drawn)	-20	3105	5	-2	4.2	-5	1
Cc1ccc(C)c(CN2CCC(n3nnc4cc(F)ccc43)CC2)c1	8	9111	8	-1	-0.9	-7	-2
O=C(NC1CCS(=O)(=O)C1)c1ccc(N2CCCCC2)c([N+](=O)[O-])c1 (stereo not drawn)	-19	5619	4	7	1.3	-5	-1
CCOC(=O)c1cc(-c2ccccc2)n(CC(=O)NC(C)(C)C)c1C	-7	2608	1	8	1.2	-7	3
CCCCN(CC)C(=O)c1ccc(-c2ccccc2)cc1	-38	2423	2	2	2.2	6	2
COc1ccc(CCN2C(=O)CSC2=NNC(=O)c2ccc(C(C)(C)C)cc2)cc1OC	·	·	7	6	1.7	·	0
Cc1ccc(NC(=O)C(c2ccc(Cl)cc2)N2CCCCC2)cc1 (stereo not drawn)	-10	8670	0	1	-0.1	·	2
Cc1ccc(SC[C@H](C)CN2CC[C@H](C)CCC2=O)cc1	-17	4125	·	·	·	6	·
O=C(O)c1ccc(/C=N/NC(=O)c2ccc(F)cc2)cc1	-20	3553	·	·	·	7	·
COC(=O)c1ccccc1NC(=O)CNc1ccc(F)c(S(=O)(=O)N2CCOCC2)c1	-27	6449	8	-1	2.0	·	4
COc1cccc(C(=O)c2c(C)c(CCC#N)n3ccccc23)c1	-51	4015	6	-1	0.2	-13	2
O=C(c1cc(-c2ccccc2Cl)nc2ccc(Br)cc12)N1CCN(c2ccccn2)CC1	-15	6212	-1	1	0.0	15	5
Cc1ccc(S(=O)(=O)CCC(=O)N2CCN(c3ccccc3F)CC2)cc1	-3	5011	18	10	4.0	-5	9
COc1ccc(/C(C)=N/NC(=O)CNC(=O)c2cccs2)cc1	-7	2190	·	·	·	-6	·
O=C(NN=Cc1ccncc1)c1cc2ccccc2cc1O	·	·	10	6	-3.8	·	5
CCCC(=O)Nc1cc2c3c(c1)CCN3C(=O)CC2	-7	5436	0	3	-2.3	-7	-1
Cc1ccc(SC(C)C(=O)NCc2ccncc2)cc1 (stereo not drawn)	-31	4317	7	10	3.1	-19	3
CC(Oc1ccc(Br)cc1)C(=O)Nc1ccc(S(=O)(=O)N(C)C2CCN(C)CC2)cc1 (stereo not drawn)	-20	6088	8	12	-1.8	-12	2
Cc1ccc(S(=O)(=O)N2CCN(c3ncnc4scc(-c5ccccc5)c34)CC2)cc1	9	4185	3	-5	91*	·	58
Fc1ccc(N2CCN(c3nc(CN4CCOCC4)nc4scc(-c5ccccc5)c34)CC2)cc1	-17	2599	1	14	-6.0	-3	2
COc1ccc(-c2csc(NC(=O)Cc3ccccc3)n2)cc1OC	13	6213	4	-4	-8.7	-1	56
O=C(NC1CCCc2c1cnn2-c1cc(F)cc(F)c1)c1ccncc1 (stereo not drawn)	10	7761	0	6	0.6	1	0
CC(=O)C(CC(=O)N1CCCc2ccccc21)C(=O)Nc1ccc(F)cc1 (stereo not drawn)	-26	3975	·	·	2.9	3	7
COc1ccc(C=NNC(=O)c2cccs2)c2ccccc12	·	·	0	-3	-1.7	·	-13
COc1cc(OC)cc(-c2cc3ccc(OC)cc3cn2)c1	-79	4256	3	8	5.7	·	13
C=CCSc1nnc2c(n1)OC(C)=Nc1ccc(Br)cc1-2	-27	4912	4	12	3.9	-9	-13
Cc1ccc(-c2nn(C)c(=O)c3ccccc23)cc1CNC(=O)NC1CCCCC1	-18	6337	0	4	1.1	5	-2
Fc1ccc(OCCn2cnc(Cl)c2Cl)cc1	-43	4674	10	1	3.1	6	3
Cc1ccc2sc(N(CCCN(C)C)C(=O)CN3C(=O)c4ccccc4C3=O)nc2c1C	-13	4206	13	2	-4.9	-4	3
CCOc1ccc(NC(=S)NC(=O)/C=C/c2ccc(Br)cc2)c([N+](=O)[O-])c1	-10	4492	14	6	6.2	-12	2
CCOC(=O)C(C#N)=CN1CCNc2ccccc21	-20	3684	12	11	3.2	·	2
O=C(Nn1cnnc1)c1ccc(F)c(S(=O)(=O)N2CCCCC2)c1	-5	3207	8	13	2.8	-5	7
CCOc1cc(/C=N\NC(=O)c2ccc(NC(=O)C(C)(C)C)cc2)ccc1OC(=O)c1ccc(OC)cc1	-7	9227	·	·	·	2	·
COc1cc(C=NNC(=O)C2CCN(CC(O)COCc3ccccc3)CC2)ccc1O (stereo not drawn)	·	·	-3	7	6.5	·	3
CC(C(=O)N1CCOCC1)n1cc([N+](=O)[O-])cn1 (stereo not drawn)	-24	3679	12	4	9.1	17	6
O=C(Cc1ccccc1)NCCSCc1ccc(Cl)cc1	-14	2849	6	10	-3.5	0	4
Next compounds:
SMILES	PrP 5UTR inh	Bead autofluor	Mtb hypoxia rep	Mtb hypoxia rep growth	RN4220 kill	BJeLR viability	Sa ugtP lethal
Cc1cc(C(=O)COC(=O)c2cccnc2Cl)c(C)n1-c1c(C)n(C)n(-c2ccccc2)c1=O	-6	2018	-1	-2	0.3	-3	7
CCN(CC)CCCN(C(=O)c1ccco1)c1nc(-c2ccc(Cl)cc2)cs1	-29	3369	17	18	-6.7	16	-19
CC(Sc1ccc(S(=O)(=O)N2CCN(C)CC2)cn1)C(=O)NC1CCCCC1 (stereo not drawn)	-12	3892	-2	2	-0.5	·	-3
C[C@@H]1COC(=O)[C@@H](Cc2ccc(F)cc2)C/C=C\C[C@@H](CC(=O)NCCO)C(=O)N1	-20	3855	3	2	2.6	·	1
Nc1c(C(=O)CSc2ncccn2)c(=O)[nH]c(=O)n1C1CC1	-11	5933	-1	4	2.7	·	0
COc1ccnc(Oc2ccccc2)c1C(=O)N/C=N/OCc1ccc(F)cc1Cl	-6	12422	1	6	14	-7	-2
CCN1CN(Cc2ccccc2)CNC1=S	-13	2099	-3	11	1.1	14	15
O=c1[nH]c(=O)n(-c2cccc3ccccc23)c(O)c1C=NCc1ccc2c(c1)OCO2	-11	9423	14	8	-0.7	-9	1
Cc1ccc(S(=O)(=O)N2CCC(C(=O)N[C@@H](Cc3ccccc3)C(=O)O)CC2)cc1	-25	5330	0	5	1.6	1	1
Cc1cc(NC(=O)CSc2cc(Cl)ccc2Cl)n(-c2ccccc2)n1	-13	2489	4	4	2.4	6	2
Cc1ccc(C(=O)Oc2ccc(/C=N/NC(N)=O)cc2)cc1	-7	4384	·	·	·	2	·
O=C(c1c[nH]c(C(=O)C(Cl)(Cl)Cl)c1)c1ccc(F)cc1Cl	-16	3818	11	3	4.3	8	5
O=C(CCC1CCCN(C(=O)CCN2CCCCC2=O)C1)NCc1ccccc1F (stereo not drawn)	-26	2073	7	5	6.4	-6	7
COc1cccc(C=Nn2c(N)c(S(=O)(=O)c3cccs3)c3nc4ccccc4nc32)c1	·	·	11	-2	4.0	·	-14
CCOC(=O)c1c(NC(=O)CN2C(=O)NC(C)(c3ccccc3)C2=O)sc(C)c1C (stereo not drawn)	-6	7823	10	7	6.2	-7	-12
Cc1ccc(SCc2[nH]nc3c2C(C(C)C)C(C#N)=C(N)O3)cc1 (stereo not drawn)	1	3928	3	5	6.5	0	-18
CCCOc1ccc(-c2nc(=S)[nH][nH]2)cc1	-24	22693*	9	14	-0.1	0	2
Cc1ccc(/C=C2\SC(=S)N(CCC(=O)NNC(=O)c3cccnc3)C2=O)cc1	-14	2657	3	8	5.1	9	-2
Cc1cccc(-n2c(SCC(=O)Nc3ccc4c(c3)OCO4)nnc2-c2ccoc2C)c1	-12	3457	9	-4	-0.8	11	3
CCC(C(=O)NCc1ccco1)N(C(=O)CNS(=O)(=O)c1ccccc1)C1CCCCC1 (stereo not drawn)	-11	4264	6	6	5.1	-2	14
C=CCNC(=O)c1cn(CC)c2cc(N3CCN(C(=O)c4ccco4)CC3)c(F)cc2c1=O	-16	4933	-3	3	94*	7	98*
Cc1ccc(S(=O)(=O)CC(=O)c2ccc([N+](=O)[O-])cc2)cc1	-39	·	-2	4	53	-4	41
Cc1cccc(N2CCN(C(=O)c3cccc(S(=O)(=O)N4CCc5ccccc5C4)c3)CC2C)c1 (stereo not drawn)	0	2020	-6	1	6.0	10	2
